# Screening data: PubChem BioAssay, National Center for Advancing Translational Sciences (NCATS)
# 2A Renilla: lowers the Renilla signal of an FMDV 2A StopGo reporter; AID 1745857; 120,000 tested, 0.32% active; HEK cells with a luciferase reporter of 2A StopGo recoding; Potency, µM (titrated, usually from 57.5 µM), without a hit: top-dose signal change, negative = less light; active means well fitted falling curve with a large enough effect; inconclusive means small, poorly fitted or top-dose-only effect; inactive means no such curve, though single readings can be large or run the other way; further: nearly all actives have a fitted effect of over 55% in size; overnight with compound
# StopGo FLuc: lowers the firefly signal of an FMDV 2A StopGo reporter. AID 1745856. HEK cells with a luciferase reporter of 2A StopGo recoding. 120,000 tested, 0.23% active. Potency, µM (doses to about 57.5 µM), for inactives: at the highest dose signal change, negative = less light; active = well fitted falling curve with a large enough effect; inconclusive = small, poorly fitted or top-dose-only effect; inactive = no such curve, though single readings can be large or run the other way; further: nearly all actives have a fitted effect of over 60% in size; overnight with compound
# Starred values were filed as active, the others as inactive; ? = inconclusive; & = joins results of further samples; [ ] = dose if it differs, or a comment. On the % scale 0 is the no-effect control and ±100 the full control effect; potency means the concentration at half of the fitted maximal effect. Compounds as they come; overall some 0.53% were active at least once.
# Start of the listing, in advance (three entries):
SMILES,2A Renilla,StopGo FLuc
CSc1ccc(C2=NN(S(=O)(=O)c3ccccc3)C(c3ccc4nccnc4c3)C2)cc1 (stereo not given),-0.1%,85.6%[activator]
Cc1cc(C(=O)Nc2cccc(F)c2)c2c(C)nn(-c3cccc(Cl)c3C)c2n1,-10.3%,3.9%
CC(C)NC(=O)CSc1ccccc1C(=O)Nc1ccccc1C(=O)NC1CC1,-9.2%,-1.8%

# Results (from the top)
SMILES,2A Renilla,StopGo FLuc
CSc1ccc(C2=NN(S(=O)(=O)c3ccccc3)C(c3ccc4nccnc4c3)C2)cc1 (stereo not given),-0.1%,85.6%[activator]
Cc1cc(C(=O)Nc2cccc(F)c2)c2c(C)nn(-c3cccc(Cl)c3C)c2n1,-10.3%,3.9%
CC(C)NC(=O)CSc1ccccc1C(=O)Nc1ccccc1C(=O)NC1CC1,-9.2%,-1.8%
CC1=C(c2ccc(C)cc2)S(=O)(=O)NC1=NCCCN1CCN(c2ccccc2F)CC1,25.0%,-14.9%
CCC(CNC(=O)c1ccc(C(=O)OC)cc1)c1ccccc1 (stereo not given),0.0%,21.4%
CCCCc1ccc(NC(=O)C2(C)Cc3ccccc3C(=O)O2)cc1 (stereo not given),8.6%,38.1%[activator]
CCN(CC(=O)NCc1cccs1)C(=O)C1CC(=O)N(c2ccc(OC)cc2OC)C1 (stereo not given),-13.2%,-9.6%
COC(=O)c1cc(OC(=O)CCc2ccc(OC)c(Br)c2)cc(C(=O)OC)c1,11.9%,6.3%
COc1ccccc1CCNC(=O)c1ccc2c(c1)c(C)c(C)n2Cc1ccc(Cl)cc1,-11.3%,-14.9%
Cc1ccc(CNC(=O)c2c(-c3ccccc3F)noc2C)o1,21.7%,20.3%
Cc1cccc(Cc2c(C)nc(Nc3nc(C)c4cc(C)ccc4n3)[nH]c2=O)c1,-1.9%,4.5%
CCN(CC)S(=O)(=O)c1cccc(NC(=O)c2ccccc2OCc2cn3ccccc3n2)c1,54.5%[activator],-27.6%
COc1ccc(OC(=O)c2ccc(OC)c(Br)c2)cc1,28.5%,0.0%
CCOc1cc(C(=O)Oc2ccccc2OC)cc(Br)c1OC,9.0%,7.7%
Clc1ccc(OCCN2CCN(Cc3nc(C4CC4)no3)CC2)cc1,?,?
Fc1ccc(-c2cc(-c3nc(-c4ccccc4)no3)[nH]n2)cc1,6.9%,86.5%[activator]
COC(=O)c1ccc(NC(=O)Cn2c(=O)nc(-c3ccccc3)c3ccccc32)cc1,6.7%,17.0%
Cc1ccc(C(=O)n2nc(C)c(S(=O)(=O)N3CCCCCC3)c2C)cc1C,-1.0%,50.0%[activator]
COc1ccc(-c2cc(C(F)(F)F)nc(SCC(=O)Nc3ccc(O)cc3)n2)cc1OC,-0.6%,0.8%
COc1cccc(CSc2nc3n(n2)C(c2cccs2)C(C(=O)Nc2ccccc2C)=C(C)N3)c1 (stereo not given),-0.3%,-8.4%
COc1ccccc1Nc1nn2c(=O)c3ccc(C(=O)Nc4ccc(F)cc4)cc3nc2s1,0.9%,6.8%
Cc1ccc(C)c(N2C(=O)N(Cc3cccc(C(F)(F)F)c3)c3ccccc3S2(=O)=O)c1,22.7%,1.0%
Cc1cccc(-c2nc(SCc3cc(=O)c4cccc(F)c4[nH]3)n[nH]2)c1,24.3%,-8.6%
CCOC(=O)c1[nH]c(C=O)c(CC)c1C,52.5%[activator],57.4%[activator]
Cc1cccc(C)c1OCCCn1c(CCNC(=O)C2CCCCC2)nc2ccccc21,-7.5%,0.0%
Cc1cc(SCC(NC(=O)c2ccccc2)C(=O)O)c2cc(Br)ccc2n1 (stereo not given),-9.3%,-1.6%
CCOc1ccc(-c2nc(C#N)c(NCc3ccc(Cl)cc3)o2)cc1,14.7%,49.5%[activator]
N#Cc1nc(C2CC2)oc1N1CCN(Cc2c(F)cccc2Cl)CC1,-0.3%,7.1%
N#C/C(=C\c1ccc2c3c(cccc13)CC2)c1nc2ccccc2[nH]1,15.4%,135.7%[activator]
CCCC(=O)Nc1ccc2oc(-c3ccc(OC)c(Cl)c3)nc2c1,-0.6%,116.9%[activator]
Cc1ccc2c(c1)N(CC(=O)Nc1ccccc1C(F)(F)F)C(=O)c1cccnc1O2,-3.3%,2.6%
COCCCn1c(SCC(=O)Nc2ccc(OC)cc2)nc2c(sc3ccccc32)c1=O,-1.5%,-14.5%
Cc1ccccc1-c1cc(=O)c2cc(NC(=O)c3ccccc3F)ccc2o1,39.5%[activator],0.0%
C[C@]12CC[C@H]3[C@@H](CCC4=CC(=O)CC[C@@]43C)[C@@H]1CC[C@@H]2C(=O)O,-8.9%,-3.8%[11.5 µM]
Cn1c(CC(=O)Nc2ccccc2)nnc1SCC(=O)c1ccc(C#N)cc1,-7.1%,-7.6%
Cc1ccc(CC(=O)NCCc2ccccn2)cc1,10.8%,44.3%[activator]
Cc1ccc(-c2nc(SCC(=O)NCC3CCCO3)c(-c3ccc(C)cc3)[nH]2)cc1 (stereo not given),-7.0%,3.2%
Cc1ccc(C2=CC(=O)CC(c3ccccc3)C2)cc1 (stereo not given),24.9%,0.0%
Cn1c(SCc2ccc(Br)cc2)nc2c([nH]c3ccccc32)c1=O,-21.3%,-6.1%
O=C(Nc1ccc(F)cc1F)C1CCN(c2ncccn2)CC1,-13.9%,-7.5%
CN(C)c1ccc(CNC(=O)c2nccnc2N)cn1,-2.7%,18.6%
Cc1ccc2c(c1)N(C(=O)Nc1ccc(Br)cc1F)CCO2,-16.3%,-13.4%
Cc1ccc2oc(-c3cccc(NC(=O)c4ccc(C#N)cc4F)c3)nc2c1,11.7%,57.8%[activator]
O=C(CSc1nnc(NC(=O)NC2CCCCC2)s1)Nc1ccccc1F,1.2%,107.8%[activator]
COc1ccccc1C1=NS(=O)(=O)N(C)C(C(=O)Nc2cccc(O)c2)=C1,29.5%,-7.5%
COc1ccc(NC(=O)Cn2c(SCc3cc(C)ccc3C)nc3ccncc32)c(OC)c1OC,-11.0%,-7.8%
N#CCCn1c(SCC(=O)N(C2CCCCC2)C2CCS(=O)(=O)C2)nc2ccccc21 (stereo not given),3.4%,-7.5%
Cc1ccc(OCC(=O)Nc2ccccc2C(=O)OCc2cc(=O)n3c(C)csc3n2)cc1,13.6%,-24.1%
CN(Cc1ccc(-c2ccc(Cl)cc2)o1)C(=O)CNC(=O)c1ccccc1,?,-24.0%
CC(C)n1nnnc1SCCS(=O)(=O)c1cc(Cl)ccc1Cl,25.5%,1.5%
CN1C(=S)SC(C)(C)C1N(O)C=C1C=CC(=O)C=C1 (stereo not given),-16.4%,16.4%
Cc1cc(C)nc(NC2=NCC(=O)N2c2cc(Cl)cc(Cl)c2)n1,-8.8%,0.7%
CCn1nc(C(=O)Nc2cc(Cl)ccc2Oc2ccc(OC)cc2)c2ccccc2c1=O,-0.4%,1.4%
Cc1ccc(C(C)(C)C)cc1SC(C(N)=O)c1ccccc1 (stereo not given),?,?
Cc1ccc(S(=O)(=O)NC2CC2)cc1C(=O)OCc1nc2ccccc2nc1C,?,?
CCC(=O)N1c2ccccc2NC2=C(C(=O)CC(C)(C)C2)C1c1ccc(OC)c(OC)c1 (stereo not given),60.8%[activator],10.3%
COc1ccc2c(C)c(CC(=O)NCc3ccc4c(c3)OCO4)c(=O)oc2c1,-0.3%,6.1%
CCC(C)NC(=O)C(=O)Nc1c2c(nn1-c1ccccc1)CS(=O)(=O)C2 (stereo not given),-3.0%,22.3%
O=C(Cn1ccc(=O)[nH]c1=O)NC(c1ccc(Cl)cc1)c1cccs1 (stereo not given),-9.4%,-8.3%
Cc1csc(NC(=O)c2nn(C(C)C)c(=O)c3ccccc23)n1,9.6%,0.0%

# Ordered by formula weight (low to high): some entries from above.
SMILES,2A Renilla,StopGo FLuc
CN(C)c1ccc(CNC(=O)c2nccnc2N)cn1,-2.7%,18.6%
Cc1ccc(C(C)(C)C)cc1SC(C(N)=O)c1ccccc1 (stereo not given),?,?
O=C(Nc1ccc(F)cc1F)C1CCN(c2ncccn2)CC1,-13.9%,-7.5%
Cc1csc(NC(=O)c2nn(C(C)C)c(=O)c3ccccc23)n1,9.6%,0.0%
Cc1cc(C)nc(NC2=NCC(=O)N2c2cc(Cl)cc(Cl)c2)n1,-8.8%,0.7%
Cc1ccc2c(c1)N(C(=O)Nc1ccc(Br)cc1F)CCO2,-16.3%,-13.4%
Cc1ccc2oc(-c3cccc(NC(=O)c4ccc(C#N)cc4F)c3)nc2c1,11.7%,57.8%[activator]
CCC(C)NC(=O)C(=O)Nc1c2c(nn1-c1ccccc1)CS(=O)(=O)C2 (stereo not given),-3.0%,22.3%
COc1ccc2c(C)c(CC(=O)NCc3ccc4c(c3)OCO4)c(=O)oc2c1,-0.3%,6.1%
CN(Cc1ccc(-c2ccc(Cl)cc2)o1)C(=O)CNC(=O)c1ccccc1,?,-24.0%
COc1ccccc1C1=NS(=O)(=O)N(C)C(C(=O)Nc2cccc(O)c2)=C1,29.5%,-7.5%
Cn1c(SCc2ccc(Br)cc2)nc2c([nH]c3ccccc32)c1=O,-21.3%,-6.1%
O=C(CSc1nnc(NC(=O)NC2CCCCC2)s1)Nc1ccccc1F,1.2%,107.8%[activator]
Cc1ccc(S(=O)(=O)NC2CC2)cc1C(=O)OCc1nc2ccccc2nc1C,?,?
CCC(=O)N1c2ccccc2NC2=C(C(=O)CC(C)(C)C2)C1c1ccc(OC)c(OC)c1 (stereo not given),60.8%[activator],10.3%
CCn1nc(C(=O)Nc2cc(Cl)ccc2Oc2ccc(OC)cc2)c2ccccc2c1=O,-0.4%,1.4%
N#CCCn1c(SCC(=O)N(C2CCCCC2)C2CCS(=O)(=O)C2)nc2ccccc21 (stereo not given),3.4%,-7.5%
Cc1ccc(OCC(=O)Nc2ccccc2C(=O)OCc2cc(=O)n3c(C)csc3n2)cc1,13.6%,-24.1%
COc1ccc(NC(=O)Cn2c(SCc3cc(C)ccc3C)nc3ccncc32)c(OC)c1OC,-11.0%,-7.8%

# Next entries follow:
SMILES,2A Renilla,StopGo FLuc
CC(OC(=O)c1n[nH]c(=O)c2ccccc12)C(=O)Nc1c(F)cccc1F (stereo not given),-0.9%,5.9%
Cc1ccc(S(=O)(=O)C(C)C(=O)c2ccc(Cl)cc2)cc1 (stereo not given),42.0%[activator],?
Cc1cc(C)c2c(N)c(-c3ccc(C#N)cc3)sc2n1,11.5%,48.3%[activator]
O=C(Cn1c(=O)c2c(ncn2Cc2ccccc2)n(Cc2ccccc2)c1=O)NCCc1ccccc1,1.1%,-0.4%
O=C(NCC(c1ccco1)S(=O)(=O)c1cccs1)c1ccccc1F (stereo not given),43.1%[activator],44.1%[activator]
O=C(Nc1cccs1)Nc1ccc(F)cc1F,69.8%[activator],92.4%[activator]
CCN(Cc1cc2cc(C)ccc2[nH]c1=O)S(C)(=O)=O,-7.6%,-5.3%
COc1ccccc1CNC(=O)c1cnc2sc(N3CCOCC3)nn2c1=O,-9.6%,-15.8%
COc1ccc(CCN2C(=O)CCC2(C)C(=O)NCc2ccc(C)cc2)cc1OC (stereo not given),0.5%,3.1%
c1ccc(N2CCN(c3ncnc4c3nc3n4CCCCC3)CC2)cc1,?,?
Cc1cccc(C(=O)Nc2ccc(S(=O)(=O)N3CCCCC3c3cccnc3)cc2)c1 (stereo not given),-15.4%,?
COc1ccc(NC(C)c2nnc(-c3cccs3)o2)c(OC)c1 (stereo not given),-10.1%,34.7%[activator]
CC(CNC(=O)c1csc2c1CCCCC2)c1ccccc1 (stereo not given),15.9%,256.7%[activator]
Cc1ccc2c(COC(=O)C3CCCO3)cc(=O)oc2c1C (stereo not given),2.0%,18.8%
CCc1ccc(C2=NN(CCC(=O)NCCc3ccc(Cl)cc3)C(=O)CC2)cc1,19.3%,17.2%
CCOC(=O)Cn1nc(C)c(NC(=O)COc2ccc(OC)cc2)c1C,5.6%,6.3%
O=C(NC1CCCCC1)c1ccnc(Cl)c1,-0.3%,-8.0%
Cc1ccc(CNC(=O)Cn2c(=O)n(Cc3ccc(F)cc3)c(=O)c3sc4ccccc4c32)cc1,-18.6%,?
Clc1ccccc1CNc1nc2ccccc2c2nc(-c3ccccc3)nn12,-16.8%,2.1%
COc1ccc(NC(=O)c2ncoc2-c2ccc(C)o2)c(OC)c1,-7.2%,-3.2%
Cc1ccc(NC(=O)C(C)Sc2ccc(C(F)(F)F)cn2)cc1 (stereo not given),-1.1%,-0.4%
COc1ccc(-c2nc(S(=O)(=O)c3ccccc3)c(N3CCC(C)CC3)o2)cc1,0.0%,-10.9%
CC(C)(C)C(=O)COC(=O)c1ccccc1Cl,-3.3%,10.6%
Cc1ccc(NC(=O)CSc2nc(-c3ccco3)nc3cc(=O)[nH]n23)cc1,-15.5%,-14.7%
COc1cc2[nH]c(C(=O)NCC3CCCO3)cc2c(OC)c1OC (stereo not given),0.0%,21.2%
Cc1ccc(C(c2sc3nc(-c4ccco4)nn3c2O)N2CCC3(CC2)OCCO3)cc1 (stereo not given),45.6%&45.6%[activator],12.1%&-3.8%
CCN(CC)S(=O)(=O)c1ccc(C(C)NCc2sccc2C)cc1 (stereo not given),8.2%,14.0%
Cc1ccccc1Cn1c(=O)n(CCCCC(=O)NCCc2ccccc2)c(=O)c2ccccc21,-9.8%,?
